FGF22 binding = FGF22 (human) thermal shift binding; Q9HCT0; hit rate 1.5% among 340,000; AID 651658; calls only at 9.99 µM; recombinant FGF22 thermal shift, SYPRO orange fluorescence; percent of sucrose octasulfate shift, DMSO zero;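 active = melting point raised past a set limit in the mean and every replicate; inconclusive = no clear call; three in four hits are not shown here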
Target sequence (Q9HCT0 whole entry, looked up): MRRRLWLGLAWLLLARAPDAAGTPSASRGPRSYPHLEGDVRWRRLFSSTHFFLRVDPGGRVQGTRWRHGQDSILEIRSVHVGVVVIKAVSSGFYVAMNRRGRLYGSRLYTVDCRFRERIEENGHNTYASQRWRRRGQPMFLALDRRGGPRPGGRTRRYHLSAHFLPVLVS
rRNA inh HTS = inhibitors of bacterial rRNA selective over humanized ribosomes. E. coli WT GFP vs humanized-ribosome RFP mutants, fluorescence, 24 h; stronger effect = lower value; DMSO median 0, no signal -100. GFP signal change (wild-type ribosome), % (no concentration beside the values). hit rate 1.6% among 350,000. AID 720706;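 active = significant combined selectivity score with lowered wild-type GFP, culture density cut under 30%, mutant RFP and density less affected; inactive = any of these conditions unmet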; also: one replicate is shown; some compounds called inactive have numbers as strong as hits
MLL AF4-AF9 inh = inhibitors of human MLL-AF4/AF9 interaction; P42568; AlphaScreen, biotin-AF4 peptide binding to FLAG-AF9; inhibition, % at 10 µM; hit rate 0.47% among 350,000; AID 651704;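 active = every replicate reaching a set inhibition limit, whatever the replicate mean, cut at about 25% in these data; inconclusive = mean inhibition reaches that limit but some replicates miss it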;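 also: 0% = plate neutral control median and 100% = total signal loss; the record names both 10 and 1 µM as test concentration; the first replicate is given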
Target sequence (P42568 whole entry, looked up): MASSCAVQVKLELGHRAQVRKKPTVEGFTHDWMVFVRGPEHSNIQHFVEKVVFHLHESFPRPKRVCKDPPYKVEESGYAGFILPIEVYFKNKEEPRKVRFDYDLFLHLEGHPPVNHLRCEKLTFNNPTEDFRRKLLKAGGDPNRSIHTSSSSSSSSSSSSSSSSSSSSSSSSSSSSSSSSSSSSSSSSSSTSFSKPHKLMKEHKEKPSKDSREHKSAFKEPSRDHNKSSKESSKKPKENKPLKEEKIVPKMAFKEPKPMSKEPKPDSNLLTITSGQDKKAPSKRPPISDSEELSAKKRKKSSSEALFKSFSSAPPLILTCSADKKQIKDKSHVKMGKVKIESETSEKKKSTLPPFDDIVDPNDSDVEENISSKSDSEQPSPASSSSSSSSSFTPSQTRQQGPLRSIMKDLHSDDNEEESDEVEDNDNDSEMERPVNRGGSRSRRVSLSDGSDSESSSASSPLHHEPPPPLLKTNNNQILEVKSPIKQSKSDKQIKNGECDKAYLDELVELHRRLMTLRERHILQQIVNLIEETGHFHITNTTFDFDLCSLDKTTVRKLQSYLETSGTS
rRNA inh HTS OD600 = recorded beside rRNA inh HTS, whose call it bears; OD600 change, %; measured here: OD600 growth;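 optical density of the mix in the first replicate; 0 = DMSO median and -100 = no signal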
rRNA inh HTS RFP = further read-out of rRNA inh HTS, marked with its call; RFP signal change, %; measured here: RFP humanized mutant strains;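 first replicate; 0 = DMSO median and -100 = no signal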
* hit, by the source's call; i = inactive; ? = inconclusive; . = no result given; & = joins results of further samples. These rows are one share of the data. The share of hits here may be higher or lower than overall.

SMILES | FGF22 binding | rRNA inh HTS | rRNA inh HTS OD600 | rRNA inh HTS RFP | MLL AF4-AF9 inh
O=c1[nH][nH]c2c1[C@H](c1ccc(Cl)cc1)O[C@H](CCc1ccccc1)C2 | i | -25.7 | -51.1 | -4.0 | -1.5
C[C@H]1CN([C@@H](C)CO)C(=O)c2cc(-c3ccccc3)cnc2O[C@H]1CN(C)C(=O)c1cccnc1 | i | 2.0 | 4.7 | -5.1 | -1.3
C[C@@H]1CN([C@H](C)CO)C(=O)CCCn2nncc2CO[C@@H]1CN(C)C(=O)Nc1ccc(-c2cccs2)cc1 | i | -1.9 | -6.6 | 1.8 | 2.2
NC(=O)c1cccc(-c2ccnc3c2CC(C(=O)NCC2CC2)O3)c1 (stereo not given) | i | 0.1 | 4.3 | -2.8 | 0.3
C[C@@H]1CN([C@H](C)CO)C(=O)c2cccc(NS(C)(=O)=O)c2O[C@@H]1CN(C)CC1CCCCC1 | i | 1.8 | 1.2 | -2.7 | -4.2
Cc1ccc(S(=O)(=O)N(C)C[C@H]2OCc3cn(nn3)CCCC(=O)N([C@@H](C)CO)C[C@@H]2C)cc1 | i | 4.1&2.0 | 8.4&3.5 | -2.0&0.1 | -2.0&1.0&-1.3
C[C@@H]1CCCCO[C@@H](CN(C)S(=O)(=O)c2cccs2)[C@@H](C)CN([C@H](C)CO)C(=O)c2cc(NS(=O)(=O)c3ccc(Cl)cc3)ccc2O1 | i | 1.1 | 3.9 | -0.8 | -2.1
C[C@@H]1CCCCO[C@@H](CN(C)C(=O)Nc2ccc3c(c2)OCO3)[C@@H](C)CN([C@H](C)CO)C(=O)c2cc(NS(=O)(=O)c3ccccc3)ccc2O1 | i | 5.1 | 4.3 | 0.4 | 5.4
C[C@H](CO)N1C[C@H](C)[C@H](CN(C)Cc2ccc(Oc3ccccc3)cc2)Oc2c(NC(=O)Nc3ccc(C(F)(F)F)cc3)cccc2C1=O | i | -1.1 | 0.8 | -1.1 | 8.1
O=C(C[C@H]1CC[C@@H]2[C@H](COC[C@H](O)CN2CC2CCCCC2)O1)NCc1ccc(F)cc1 | i | -24.4 | -66.2 | 6.9 | 0.6
CCC(=O)N1CCC1(C)C(=O)Nc1cnc2ccccc2c1 (stereo not given) | i | 6.2 | 15.2 | -1.2 | -1.3
O=C(Cc1ccccn1)N1CC2(C1)[C@H](c1ccccc1)[C@H](CO)N2C(=O)c1ccccc1 | i | 4.1 | -0.3 | 0.4 | -0.2
CC(O)(c1ccccc1)c1nc(-c2ccncc2)cs1 (stereo not given) | i | 6.0 | 20.8 | 2.7 | -5.1
CCC(=O)Nc1ccc2c(c1)OC[C@H](C)N(Cc1ccccn1)C[C@H](C)[C@@H](OC)CN(C)C2=O | i | 1.7 | -1.9 | -3.0 | ?
CC(=O)N1CCCCN2[C@@H](CO)[C@H](c3ccc(-c4ccc(C)cc4)cc3)[C@@H]2C1 | i | 2.5 | 1.3 | 0.8 | 1.1
COc1cccc(S(=O)(=O)N[C@H]2CC[C@H](CC(=O)NCc3ccc(F)cc3)O[C@H]2CO)c1 | i | 2.1 | -0.5 | 2.7 | -1.1
CCCNC(=O)N(C)C[C@H]1Oc2ncc(C#CC3CCCCC3)cc2C(=O)N([C@H](C)CO)C[C@H]1C | i | -2.9 | 7.2 | -3.8 | -0.7
C[C@H]1CN([C@@H](C)CO)C(=O)Cc2cc(NS(=O)(=O)c3ccc(F)cc3)ccc2O[C@@H]1CN(C)CC1CCCCC1 | i | 4.2 | -7.5 | 3.0 | -5.3
C[C@@H]1CCCCO[C@@H](CN(C)Cc2ccc(Cl)c(Cl)c2)[C@H](C)CN([C@H](C)CO)C(=O)c2cc(NS(=O)(=O)c3ccc(F)cc3)ccc2O1 | i | 1.0 | -2.8 | 5.7 | 4.2
C[C@@H]1CN([C@H](C)CO)C(=O)c2cccc(NS(=O)(=O)c3cccs3)c2O[C@@H]1CN(C)S(=O)(=O)c1cn(C)cn1 | i | 5.3 | 4.8 | 1.0 | -0.3
COCC(=O)N1CC2(C1)[C@@H](c1ccc(-c3cccc(F)c3)cc1)[C@H](CO)N2C(=O)COC | i | 1.2 | -3.0 | -1.0 | 0.2
O=C(OCCn1c(=S)sc2ccccc21)c1ccccc1 | i | -25.5 | -42.5 | -7.6 | 0.5
C[C@@H]1CN([C@@H](C)CO)C(=O)c2cc(NC(=O)CCC(F)(F)F)ccc2O[C@@H](C)CCCCO[C@@H]1CN(C)Cc1ccncc1 | i | -3.4 | -6.8 | 1.0 | -0.5
Cc1ccc([C@H]2C[C@H](n3cc(-c4ccc(F)cc4)nn3)[C@@H](O)CN2C(=O)C2CCCCC2)cc1 | i | -3.6 | -3.2 | 2.7 | -0.8
C[C@@H]1CN([C@H](C)CO)S(=O)(=O)c2ccc(C#Cc3ccc(F)cc3)cc2O[C@H]1CN(C)S(C)(=O)=O | i | -10.3 | -56.5 | 28.9 | 4.3

Entries of single compounds, looked up by structure. Order of screens: FGF22 binding	rRNA inh HTS	rRNA inh HTS OD600	rRNA inh HTS RFP	MLL AF4-AF9 inh
`C[C@@H]1CCCCO[C@@H](CN(C)S(=O)(=O)c2cccs2)[C@@H](C)CN([C@H](C)CO)C(=O)c2cc(NS(=O)(=O)c3ccc(Cl)cc3)ccc2O1` in the list: i	1.1	3.9	-0.8	-2.1
`COc1cccc(S(=O)(=O)N[C@H]2CC[C@H](CC(=O)NCc3ccc(F)cc3)O[C@H]2CO)c1` in the list: i	2.1	-0.5	2.7	-1.1
`CC(=O)N1CCCCN2[C@@H](CO)[C@H](c3ccc(-c4ccc(C)cc4)cc3)[C@@H]2C1` in the list: i	2.5	1.3	0.8	1.1
`C[C@@H]1CCCCO[C@@H](CN(C)Cc2ccc(Cl)c(Cl)c2)[C@H](C)CN([C@H](C)CO)C(=O)c2cc(NS(=O)(=O)c3ccc(F)cc3)ccc2O1` in the list: i	1.0	-2.8	5.7	4.2
`CCC(=O)N1CCC1(C)C(=O)Nc1cnc2ccccc2c1` (stereo not given) in the list: i	6.2	15.2	-1.2	-1.3

Continued:
SMILES | FGF22 binding | rRNA inh HTS | rRNA inh HTS OD600 | rRNA inh HTS RFP | MLL AF4-AF9 inh
CN1[C@@H]2c3ccc(-c4cccnc4)c(=O)n3C[C@@H]2[C@@H](CO)[C@@H]1C(=O)N1CCc2ccccc2C1 | i | 2.4 | 5.1 | 0.4 | 3.3
COc1ccccc1C=NNC(=O)NN=Cc1ccccc1OC | i | -41.1 | -63.1 | 9.9 | 6.7
Cc1ccnc2c1ccc1cccnc12 | i | -57.1 | -81.2 | -20.6 | -4.9
COc1ccc([C@H]2CC(=O)C[C@@H](CCn3nnc4ccccc43)O2)cc1 | i | -4.5 | 4.5 | 5.5 | 1.7
CCC(=O)N1C[C@H](O)COC[C@@H]2O[C@@H](CC(=O)NCc3ccc(Oc4ccccc4)cc3)CC[C@H]21 | i | 1.3 | 0.4 | 1.9 | -2.2
COCCN1Cc2cc(C(=O)OC)c3c(c2C1=O)c1cc(OC)ccc1n3S(C)(=O)=O | i | -10.3 | -4.4 | -0.2 | 3.4
O=C(NCC[C@@H]1CC[C@H](NS(=O)(=O)Cc2ccccc2)[C@H](CO)O1)C1CC1 | i | 1.5 | 1.4 | -1.9 | -2.1
CC(=O)C[C@@H](O)CC(=O)[C@@H]1OC(=O)[C@H](C)CCCCc2ccccc21 | i | 4.0 | 12.3 | -3.0 | -0.8
COC(=O)c1cc(=O)nc(NN=Cc2ccccc2O)s1 | i | 10.2 | 3.7 | 0.0 | -4.0
C[C@@H]1CN([C@@H](C)CO)S(=O)(=O)c2ccc(C#Cc3ccc(F)cc3)cc2O[C@@H]1CN(C)C | i | -0.7 | -2.3 | 1.3 | 15.6
C[C@H]1CN([C@@H](C)CO)C(=O)Cc2cc(N(C)C)ccc2O[C@@H]1CN(C)S(=O)(=O)c1ccccc1 | i | 5.0 | 0.6 | 0.9 | 0.6
O=C(C[C@H]1CC[C@@H]2[C@H](COC[C@H](O)CN2C(=O)c2ccccc2F)O1)N1CCN(c2ccccc2)CC1 | i | -1.5 | 0.2 | -1.6 | 0.8
Cc1ccc(S(=O)(=O)NN=C2CC3CC2C2CCCC32)cc1 (stereo not given) | i | 2.5 | 6.7 | 0.1 | 1.3
C[C@H](O)C#Cc1ccc2c(c1)O[C@@H](CN(C)C(=O)CN(C)C)[C@H](C)CN([C@@H](C)CO)S2(=O)=O | i | 2.8 | -6.5 | -1.3 | -1.9
c1cc2c3c(cccc3c1)NC1(CCCC1)N2 | i | -62.4 | 71.7 | -33.5 | 0.3
COc1ccccc1C#Cc1ccc2c(c1)O[C@@H](CN(C)Cc1ccncc1)[C@@H](C)CN([C@@H](C)CO)S2(=O)=O | i | -6.2 | -7.2 | 5.7 | 2.3
CC(C)CC#Cc1ccc2c(c1)O[C@H](CN(C)C(=O)Nc1ccccc1F)[C@H](C)CN([C@H](C)CO)S2(=O)=O | i | -1.7 | -0.6 | 1.6 | 0.0
COc1cccc(S(=O)(=O)N2CCCCN3[C@H](CO)[C@H](c4ccc(C#CC(C)C)cc4)[C@@H]3C2)c1 | i | -3.5 | 10.5 | 2.2 | -2.9
CC(C)Nc1ncnc2c1ncn2[C@H]1CN(Cc2cccs2)C[C@@H](CO)O1 | i | 10.7 | 9.7 | 1.8 | 3.6
CC(=O)Nc1ccc(NC(=O)c2ccccc2-n2cnnn2)cc1 | i | -0.8 | -0.2 | -0.3 | -0.5
COc1ccccc1NC(=O)N(C)C[C@@H]1OCc2ccccc2-c2c(n(C)c3ccccc23)C(=O)N([C@H](C)CO)C[C@@H]1C | i | -2.5&-1.7 | -10.8&12.3 | 5.4&5.0 | 5.5
O=c1[nH]c(=O)n(C2CC(O)C(CO)O2)cc1I (stereo not given) | i | 26.0 | 13.7 | 2.2 | -0.4
O=C(NCc1cccc(C(F)(F)F)c1)C1C(=O)Nc2ccccc2C(=O)N1C1CCCC1 (stereo not given) | i | 4.5 | 9.6 | 3.6 | -4.6
C[C@@H]1CN([C@@H](C)CO)C(=O)c2cccc(NS(=O)(=O)c3cccs3)c2O[C@@H]1CN(C)Cc1ccc(C(F)(F)F)cc1 | i | -0.8 | -9.0 | -0.9 | 2.1
CO[C@@H]1CN(C)C(=O)c2cc(NC(=O)c3ccno3)ccc2OC[C@H](C)NC[C@@H]1C | i | 9.2 | 0.5 | 1.4 | -4.1
SMILES | FGF22 binding | rRNA inh HTS | rRNA inh HTS OD600 | rRNA inh HTS RFP | MLL AF4-AF9 inh
CC=Cc1ccc2n(c1=O)C[C@@H]1[C@@H](CO)[C@H](C(=O)NCCc3ccncc3)N[C@H]21 (mixture of isomers) | i | 0.3 | 5.7 | -4.1 | 0.0
COc1ccccc1-c1cnc2c(c1)C(=O)N([C@H](C)CO)C[C@@H](C)[C@@H](CN(C)C(C)=O)O2 | i | 2.9 | -2.3 | -1.5 | -2.5
CN(C)CC(=O)N[C@H]1CC[C@H](CC(=O)NCc2ccc(Cl)cc2)O[C@H]1CO | i | 1.6 | -4.0 | -0.1 | -10.5
COc1ccc(-c2csc(NC(=O)c3c(C)noc3C)n2)cc1OC | i | -15.4 | -12.8 | -0.5 | 2.7
COc1ccc(NC(=O)Nc2ccc3c(c2)C(=O)N([C@@H](C)CO)C[C@@H](C)[C@@H](CN(C)Cc2ccc(C(=O)O)cc2)OCCCC[C@H](C)O3)cc1 | i | -0.3 | 6.6 | -1.7 | 0.0
C[C@H]1CN([C@@H](C)CO)S(=O)(=O)c2ccc(-c3cncnc3)cc2O[C@H]1CN(C)C(=O)C1CCCCC1 | i | -0.7 | -5.0 | 6.3 | -0.5
Cc1nc2ccc(Cl)cc2[nH]1 | i | 3.5 | 6.8 | -2.3 | -3.7
C[C@@H]1CN([C@H](C)CO)C(=O)CCCn2cc(nn2)CO[C@@H]1CN(C)Cc1ccccc1C(=O)O | i | 0.2 | -3.6 | 2.1 | -0.9
COC(=O)C1=C(C)N(C)C(=NCc2cccc(C(F)(F)F)c2)NC1c1cccc(F)c1 (stereo not given) | . | -21.1 | -55.6 | -0.1 | 2.6
COc1ccccc1CN(C)C[C@@H]1OCc2cnnn2CCCC(=O)N([C@H](C)CO)C[C@H]1C | i | 0.4&-0.6 | 8.3&4.8 | -3.5&-1.5 | -1.4&-1.5
CCNC(=O)[C@H]1[C@H](CO)[C@H]2Cn3c(ccc(-c4ccccc4)c3=O)[C@@H]1N2Cc1cccnc1 | i | 2.3 | 1.3 | -2.9 | -0.2
C[C@@H]1CN([C@H](C)CO)C(=O)c2cc(C3=CCCC3)cnc2O[C@H]1CN(C)C(=O)c1ccc(F)cc1 | i | -2.0 | -8.7 | -2.9 | -0.5
COC(=O)[C@H](Cc1ccccc1)NC(=O)Cn1cnc2c(NCc3ccccc3)ncnc21 | i | -12.2 | -5.4 | -1.0 | 3.6
COc1ccc(NC(=O)N(C)C[C@@H]2OCCCC[C@@H](C)Oc3ccc(NC(=O)CCC(F)(F)F)cc3C(=O)N([C@H](C)CO)C[C@H]2C)cc1 | i | 0.9 | -4.8 | -0.4 | -0.2
